VDR inhibitor: Inhibitors of the vitamin D receptor (VDR): qHTS | actives 0.93% (n = 400,000) | AID 504847, 2011 | VDR-SRC2-3 peptide fluorescence polarization, 2 h | Potency, µM, inactives show max response, negative = inhibition, usual class: inhibitors; active = well fitted inhibition curve with a large enough effect; inconclusive = small, poorly fitted or top-dose-only effect, or another doubt; inactive = no such curve, though single readings can be large or run the other way; also: series mostly up to about 120 µM
Target sequence (P11473 whole entry, looked up): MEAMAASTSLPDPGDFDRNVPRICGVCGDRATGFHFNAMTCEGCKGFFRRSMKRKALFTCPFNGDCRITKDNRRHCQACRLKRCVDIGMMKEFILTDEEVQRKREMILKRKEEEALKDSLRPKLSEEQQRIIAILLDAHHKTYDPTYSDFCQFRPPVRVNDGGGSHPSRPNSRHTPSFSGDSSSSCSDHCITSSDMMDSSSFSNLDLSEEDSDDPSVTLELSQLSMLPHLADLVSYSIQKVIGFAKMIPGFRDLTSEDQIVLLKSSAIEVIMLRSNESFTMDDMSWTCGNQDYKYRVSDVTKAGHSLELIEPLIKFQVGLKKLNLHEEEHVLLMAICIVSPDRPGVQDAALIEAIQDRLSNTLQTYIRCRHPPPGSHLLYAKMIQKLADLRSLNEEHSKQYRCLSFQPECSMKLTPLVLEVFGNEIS
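Compounds are added to VDR with labelled SRC2-3 coactivator peptide and held 2 h at room temperature. Inhibition of the VDR–peptide interaction is then read as a change in fluorescence polarization.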
* hit, by the source's call; ? = inconclusive; & = joins results of further samples. % is scaled to controls: 0 for no effect and ±100 for the full control effect; potency is read from the fitted curve at half-maximal effect. Some of the compounds tested; the hit share may differ from the screen's.

Start of the listing, in advance, 6 compounds:
SMILES	VDR inhibitor
CCN1CCc2c(sc(NC(=O)c3ccc(S(=O)(=O)N(C)C4CCCCC4)cc3)c2C(N)=O)C1	3%
O=C(C1CCN(c2nc3ccccc3[nH]2)CC1)N1CCN(c2cccc(Cl)c2)CC1	-3%
CSc1nc(-c2ccco2)nn1S(C)(=O)=O	3%
Clc1cccc(C2CCN(Cc3nc(COc4ccccc4)no3)C2)c1 (stereo not drawn)	-1%
O=C(O)c1cccc(NS(=O)(=O)c2ccc(Oc3ccc(S(=O)(=O)Nc4cccc(C(=O)O)c4)cc3)cc2)c1	-8%
N#CCOc1coc(CN2CCN(c3ccccc3)CC2)cc1=O	18%

The whole of this part, from the first entry:
SMILES	VDR inhibitor
CCN1CCc2c(sc(NC(=O)c3ccc(S(=O)(=O)N(C)C4CCCCC4)cc3)c2C(N)=O)C1	3%
O=C(C1CCN(c2nc3ccccc3[nH]2)CC1)N1CCN(c2cccc(Cl)c2)CC1	-3%
CSc1nc(-c2ccco2)nn1S(C)(=O)=O	3%
Clc1cccc(C2CCN(Cc3nc(COc4ccccc4)no3)C2)c1 (stereo not drawn)	-1%
O=C(O)c1cccc(NS(=O)(=O)c2ccc(Oc3ccc(S(=O)(=O)Nc4cccc(C(=O)O)c4)cc3)cc2)c1	-8%
N#CCOc1coc(CN2CCN(c3ccccc3)CC2)cc1=O	18%
NC(=O)COc1ccc(/C=N/NC(=O)C2CCCN2S(=O)(=O)c2ccc(Cl)cc2)cc1 (stereo not drawn)	7%
CCCCn1c(-c2ccc([N+](=O)[O-])cc2)n[nH]c1=S	4%
CCCOc1ccc(-c2cccc(NS(=O)(=O)c3ccccc3)c2)nn1	5%
COc1cc(NC(=O)CSc2nnc(-c3cc(C)on3)o2)cc(OC)c1	-5%
O=C(CSc1ncnc2c1cnn2-c1ccc(F)cc1)NCC1CCCO1 (stereo not drawn)	6%
CC(Sc1nnc(-c2cccs2)n1Cc1ccccc1)C(=O)NCc1ccc2c(c1)OCO2 (stereo not drawn)	-4%
Cc1ccnc(NC(=O)c2cc([N+](=O)[O-])cc([N+](=O)[O-])c2)c1	8%
CCCNC(=O)Nc1ccc2c(c1)N(C)C(=O)c1ccccc1S2	3%
CCC1CCCCN1CCCNC(=O)c1cn(C)c2ccc(S(=O)(=O)N3CCOCC3)cc2c1=O (stereo not drawn)	-9%
O=C(O)CCCc1ccccc1	-16%&10%&14%
O=C(COc1ccccc1)NCC(=O)N/N=C/c1ccc(Br)cc1	5%
Cc1ccsc1-c1n[nH]c(=S)n1CC(C)C	-5%
O=C(CNC(=O)COc1ccccc1)NCCc1ccccn1	-13%
Cc1ccc(C2=NS(=O)(=O)N(C)C(C(=O)NCc3ccccc3)=C2)cc1	-12%

Sorted by value in VDR inhibitor (lowest first): 7 of the compounds above.
| SMILES | VDR inhibitor |
| --- | --- |
| Cc1ccsc1-c1n[nH]c(=S)n1CC(C)C | -5% |
| O=C(C1CCN(c2nc3ccccc3[nH]2)CC1)N1CCN(c2cccc(Cl)c2)CC1 | -3% |
| Clc1cccc(C2CCN(Cc3nc(COc4ccccc4)no3)C2)c1 (stereo not drawn) | -1% |
| CSc1nc(-c2ccco2)nn1S(C)(=O)=O | 3% |
| CCCOc1ccc(-c2cccc(NS(=O)(=O)c3ccccc3)c2)nn1 | 5% |
| NC(=O)COc1ccc(/C=N/NC(=O)C2CCCN2S(=O)(=O)c2ccc(Cl)cc2)cc1 (stereo not drawn) | 7% |
| Cc1ccnc(NC(=O)c2cc([N+](=O)[O-])cc([N+](=O)[O-])c2)c1 | 8% |

More structures.
SMILES	VDR inhibitor
Cc1ccc(NC(=O)C2C3CCCCC32)cc1[N+](=O)[O-] (stereo not drawn)	-4%
COC(=O)c1cccc(NC(=O)/C=C/c2ccc3c(c2)OCO3)c1	-18%
O=Cc1ccc2cccnc2n1	-20%
Cc1ccc(NC(=O)Cn2cnc([N+](=O)[O-])c2)cc1C	0%
CC(CC(=O)Nc1ccc(F)cc1)S(=O)(=O)c1cc2c3c(c1)CCN3C(=O)CC2 (stereo not drawn)	14%
COCC1CCCN(C(=O)c2cc(COc3ccc4ncccc4c3)on2)C1 (stereo not drawn)	10%
CCOc1ccccc1NC(=O)NC(=O)N(C)S(=O)(=O)c1ccc(C)cc1	-2%
COC(=O)c1ccc(NCCC(=O)O)cc1	-10%
O=C1CCCN1c1ccc(S(=O)(=O)NCCc2ccc(Cl)cc2)cc1	-2%
COc1ccc(CC(=O)OCC(=O)Nc2cc(S(=O)(=O)N3CCOCC3)ccc2N2CCCC2)cc1	-17%
CCN1CCN(Cc2coc3ccc(C)cc3c2=O)CC1	6%
O=C(CN1CCN(CC(=O)Nc2ccc3c(c2)OC2(CCCCC2)O3)CC1)Nc1cccc(F)c1	5%
CCOc1ccc(C(=O)NCC(=O)NC(C)c2ccc(-n3ccnc3)cc2)cc1OCC (stereo not drawn)	12%
CCCNC(=O)Cn1c(=O)oc2ccccc21	21%
O=C(O)c1cc(-c2cccs2)[nH]n1	8%
COC(=O)[C@H](Cc1ccccc1)NC(=O)NCCc1ccc(S(N)(=O)=O)cc1	-10%
COc1ccc(Cl)cc1C(=O)NCc1nnnn1-c1ccccc1	9%
Cc1ccc(-c2ccnc3c(Br)c(C)nn23)cc1	-11%
CCn1cc(CNC(=O)NC2CCCCC2)c(C)n1	4%
CC1CC(C)CN(C(=O)c2cccc(N3C(=O)c4ccccc4C3=O)c2)C1 (stereo not drawn)	0%

Entries above containing bromine:
SMILES	VDR inhibitor
O=C(COc1ccccc1)NCC(=O)N/N=C/c1ccc(Br)cc1	5%
Cc1ccc(-c2ccnc3c(Br)c(C)nn23)cc1	-11%

The list continues:
SMILES	VDR inhibitor
Cc1noc(C)c1S(=O)(=O)N1CCC(C(=O)N2CCN(Cc3ccc4c(c3)OCO4)CC2)CC1	-22%
O=C1CCCC2=C1C(Cc1ccccc1)C1=C(CCCC1=O)O2	-1%
CCOc1ccc(NC(=O)c2cnn(-c3ccccc3)c2-n2cccc2)cc1	16%
O=C(CCN1CCc2ccccc2C1)c1ccc2c(c1)OCCO2	?
Cc1cc(C)cc(NS(=O)(=O)c2ccc(Oc3ncc(C(F)(F)F)cc3Cl)cc2)c1	-13%
COc1cc2c(cc1OC)C(NC(=O)C(F)(F)F)C/C2=N\O (stereo not drawn)	4%
O=C(c1cc(-c2ccc(O)cc2)on1)N1CCN(c2ccc(F)cc2)CC1	-19%
COc1cccc(NC(=O)CN(C)C(=O)CC2CCCC2)c1	6%
CCn1cc(S(=O)(=O)Nc2ncccn2)cn1	-15%
CC(=O)N1c2ccc(S(=O)(=O)N3CCCCCC3)cc2CC1C(=O)NCc1ccccc1C (stereo not drawn)	6%
CC1CC(C)CN(S(=O)(=O)c2ccc(NC(=O)C3CSC4(C)CCC(=O)N34)cc2)C1 (stereo not drawn)	1%
Cc1ccc(/C=C(\C#N)C(=O)Nc2ccc(Br)cc2)o1	5%
O=S(=O)(c1cccc2nsnc12)N1CCc2ccccc2C1	12%
CC(C)(C)c1nc2c(s1)CCc1onc(-c3ccc(Br)cc3)c1-2	-7%
Cc1ccc([N+](=O)[O-])cc1NC(=S)NC(=O)c1ccco1	-15%
Cc1cc(C(=O)NNc2ccc(F)cc2)no1	-17%
COCCCNC(=O)CCCC(=O)NCCCOC	19%
Fc1ccc(Cc2cn3cc(-c4ccc(F)cc4)nc3s2)cc1	9%
COc1ccc(COc2cc(-c3cccc(OC)c3)nc3ccc(N)cc23)cc1	2%&5%
CC(=O)N1CCc2cc(Br)cc(S(=O)(=O)NCCc3cccc(C)c3)c21	8%

Two records picked at random from those above:
SMILES	VDR inhibitor
O=C(CN1CCN(CC(=O)Nc2ccc3c(c2)OC2(CCCCC2)O3)CC1)Nc1cccc(F)c1	5%
CC(=O)N1c2ccc(S(=O)(=O)N3CCCCCC3)cc2CC1C(=O)NCc1ccccc1C (stereo not drawn)	6%

The results go on.
SMILES	VDR inhibitor
O=C(O)C1C2C=CC(C2)C1C(=O)NCCCN1CCOCC1 (stereo not drawn)	14%
O=C(O)C(Cc1ccccc1)N1C(=O)c2ccccc2C1=O (stereo not drawn)	4%
O=[N+]([O-])c1ccc(S(=O)(=O)NCCN2CCOCC2)cc1	-7%
CCOC(=O)CNS(=O)(=O)c1cc(-c2nnc(Nc3ccc4c(c3)OCO4)c3ccccc23)ccc1C	-22%
CCC(=O)Nc1ccc2c(c1)OCCO2	21%
CCOc1cc(/C=N/NC(=O)c2cc(-c3cccnc3)nc3ccccc23)ccc1O	0%
CC(C(=O)NC(C)(C)C)N1C(=O)c2cccc3cccc(c23)C1=O (stereo not drawn)	12%
O=C(Nc1nccs1)c1cccc(S(=O)(=O)N2CCCC2)c1	4%
N#CCCn1c(=O)c(-c2cccs2)nc2cnc(N3CCOCC3)nc21	-12%
O=C(c1ccccn1)N(c1ccccc1)C1(C(=O)NC2CCCCC2)CCCCC1	-4%
COc1ccccc1OC(C)C(=O)N1CCN(CCc2ccccn2)CC1 (stereo not drawn)	-5%
CC(Oc1ccccc1)c1ccnn1S(C)(=O)=O (stereo not drawn)	-5%
O=C1CN(c2ccccc2F)C(=O)CN1c1ccccc1F	-10%
O=C(NCc1cn2ccccc2n1)c1ccc(Br)o1	5%
Cc1ccccc1/C=C/c1nc2ccccc2c(=O)n1Cc1ccccc1	-8%
COc1cc(/C=C/C(=O)O)cc(S(=O)(=O)NCCO)c1OC	0%
Cc1ccc(S(=O)(=O)c2c(C)cc(C)[nH]c2=O)c(C)c1	-6%
CC(=O)c1cccc(NC(=S)NCCC2=CCCCC2)c1	5%
CCOC(=O)C1=NNC2(c3ccc(Cl)cc3)C(=O)N(c3ccc(C)cc3)C(=O)C12 (stereo not drawn)	5%
COc1ccccc1N1CCN(C2CCCN(S(=O)(=O)c3ccccc3)C2)CC1 (stereo not drawn)	7%
Cc1cccc(S(=O)(=O)C(C#N)c2nc3ccccc3nc2N2CCCC2)c1 (stereo not drawn)	4%
COCCn1c(=NC(=O)c2ccc3c(c2)OCCO3)sc2cc(S(N)(=O)=O)ccc21	1%
Cc1ccc(C2SCCN2C(=O)c2ccc([N+](=O)[O-])cc2)cc1 (stereo not drawn)	-4%
COc1ccc(C(=O)Nc2ccccc2C(=O)NC(C(=O)NCc2ccco2)C(C)C)cc1 (stereo not drawn)	20%
O=C(c1ccc2c(c1)N(Cc1c(F)cccc1Cl)C(=O)c1ccccc1S2)N1CCOCC1	-14%
COc1ccc(CNC(=O)c2cccnc2Sc2ccc(C)c(C)c2)cc1	-25%
CCOc1ccc(-n2cnc3c(=O)[nH]c(N)nc32)cc1	-16%
O=C(NC1CCCCCC1)C1c2ccccc2C(=O)N1Cc1cccnc1 (stereo not drawn)	6%
C=CC[C@@H](CC(=O)N[C@H](CO)Cc1ccccc1)C(=O)N[C@@H](C)COC(=O)[C@@H](CC=C)Cc1ccc(F)cc1	9%
Cc1cc(CNC(=O)COc2ccc([N+](=O)[O-])cc2)c2ccccc2n1	-7%
CCOC(=O)C1=C(C)N(C[C@@H]2CC[C@@H](Cc3ccc(-c4ccccc4)cc3)O2)C(=O)NC1c1ccc([N+](=O)[O-])cc1 (stereo partly drawn)	-3%
Cc1ccc(OC(=O)COc2ccccc2C)c(-n2nc3ccccc3n2)c1	-12%
CCN1CCN(C(=O)c2ccccc2Nc2ccc(SC(F)F)cc2)CC1	-12%
CSc1ccc(CN(C)C(=O)C23CC4CC(CC(Cl)(C4)C2)C3)cc1	-8%
CCC(C)n1c(=N)c(S(=O)(=O)c2ccccc2)cc2c(=O)n3ccccc3nc21 (stereo not drawn)	5%
COc1cc(CNCCN2CCOCC2)ccc1OCC(=O)NC(C)(C)C	-8%
Cc1ccc(C(=O)NCC(=O)OCCCn2c(=O)[nH]c3ccccc32)cc1	0%
CC(C)Oc1ccccc1OCCCCn1cnc2ccccc2c1=O	2%
CN(CC(=O)Nc1ccccc1Cl)C(=O)COC(=O)c1cnccn1	-1%
CCCOc1ccc(OC(=O)c2ccc(Br)o2)cc1	18%
CSCCC(=O)NC1CCCN(CCc2ccccc2)C1 (stereo not drawn)	-7%
CN1CCc2c(sc3nc(SCC(=O)NCc4ccco4)n(-c4ccccc4)c(=O)c23)C1	?
CC[C@@H](C)[C@@H]1CN([C@@H](CN2CCC[C@H]2CN2C(N)=NC[C@H]2C(C)C)C(C)C)C(=N)N1CCc1ccc(Cl)c(Cl)c1	16%
Cc1ccccc1-c1nc(CN2CCC(C(=O)NC3CCN(Cc4ccccc4)CC3)CC2)c(C)o1	0%
O=C(O)C1CC(=O)N(Cc2cccnc2)C1 (stereo not drawn)	11%
Cn1c(NC(=O)COc2ccccc2)cc(=O)n(C)c1=O	13%
C=CCN1C(=O)C(O)(CC(=O)c2ccc(OC)cc2OC)c2cc(Br)ccc21 (stereo not drawn)	-27%
COC(=O)c1ccc(SCC(=O)NC2CCCCC2)c([N+](=O)[O-])c1	0%
CC(=O)c1cc2c(cc1NC(=O)CSc1nc3ccccc3o1)OCO2	8%
Cc1onc(-c2c(F)cccc2Cl)c1C(=O)OCC(=O)NC(c1ccccc1)c1ccccc1	6%
Cc1ccc(S(=O)(=O)n2c(=O)oc3ccccc32)cc1	-10%
CCCC1(c2ccccc2)NC(=O)N(CC(=O)NCc2ccc(C)cc2)C1=O (stereo not drawn)	4%
CC(=O)OCC(=O)[C@@]1(O)[C@H](C)C[C@H]2[C@@H]3CCC4=CC(=O)C=C[C@]4(C)[C@@]3(F)[C@@H](O)C[C@@]21C	-5%
CN(C)c1ccc(NC(=O)CN2C(=O)c3ccccc3Sc3ccc(C(=O)N4CCCC4)cc32)cc1	7%
COc1ccc(NC(=O)C2CCCN(S(=O)(=O)c3ccc(Cl)cc3)C2)cc1 (stereo not drawn)	8%
